Compound activity (PubChem BioAssay)
VDR inh: blocks the human vitamin D receptor; P11473; VDR-SRC2-3 peptide fluorescence polarization, 2 h; Potency, µM, for inactives: max response, negative = inhibition, actives largely listed as inhibitors; actives 0.93% (n = 400,000); active = well fitted inhibition curve with a large enough effect; inconclusive = small, poorly fitted or top-dose-only effect, or another doubt; inactive = no such curve, though single readings can be large or run the other way; also: series mostly up to about 120 µM
Target sequence (P11473 whole entry, looked up): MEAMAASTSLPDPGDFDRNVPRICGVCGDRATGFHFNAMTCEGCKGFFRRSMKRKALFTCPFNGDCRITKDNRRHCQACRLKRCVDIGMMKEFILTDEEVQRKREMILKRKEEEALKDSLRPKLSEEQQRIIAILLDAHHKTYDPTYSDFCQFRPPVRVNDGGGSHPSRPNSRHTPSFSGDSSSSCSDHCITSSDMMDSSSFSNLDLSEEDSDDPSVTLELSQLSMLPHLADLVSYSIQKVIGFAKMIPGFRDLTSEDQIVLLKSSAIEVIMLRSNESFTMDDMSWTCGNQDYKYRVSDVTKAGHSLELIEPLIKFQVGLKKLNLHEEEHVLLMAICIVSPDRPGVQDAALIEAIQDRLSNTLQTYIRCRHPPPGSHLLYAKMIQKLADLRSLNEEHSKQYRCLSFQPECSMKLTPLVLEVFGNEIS
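Fluorescence polarization assay of small-molecule disruption of VDR binding to coregulator peptide SRC2-3. Compounds and controls pin-transferred, then read after 2 h incubation at ambient room temperature.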
Numbers without * were called inactive; ? = inconclusive. % is scaled to controls: 0 for no effect and ±100 for the full control effect; potency is read from the fitted curve at half-maximal effect. Not all compounds are listed (hit frequency here may not be typical).

SMILES	VDR inh
COc1ccc(N2CC(NC(=O)/C=C\c3ccccc3)CC2=O)cc1 (centres undefined)	4%
COCc1c(C(=O)OCC(=O)c2ccc[nH]2)oc2ccccc12	-6%
CC(C)(C)SCCNC(=O)COc1ccccc1	2%
Cc1c(Br)cc(C(=O)N2CCN(CCO)CC2)c(C)c1C	-1%
O=C(NCc1cccnc1)c1ccc(S(=O)(=O)N2CCCCCC2)cc1	0%
O=C1NC(=O)/C(=C/c2ccccc2OCc2ccccc2)S1	-28%
CCCc1cc(=O)[nH]c(SCC(=O)N2c3ccccc3NC(=O)C2(C)C)n1	0%
Cc1ccsc1C(=O)OCC(=O)c1ccc[nH]1	-1%
Cc1cc(C(=O)CSc2ccc(F)cc2)cc(C)c1OC(=S)N(C)C	9%
N#CCSc1nc2ccccc2c(=O)n1CCC(=O)NC1CCCCC1	-10%
CCOC(=O)C1=C(CNCCOc2ccc(OC)cc2)NC(=O)NC1c1ccc2c(c1)OCO2 (centres undefined)	-6%
COc1cc(OC)c(NC(=O)NCc2ccc3c(c2)CCN3C(=O)c2ccccc2)cc1Cl	11%
CCc1ccc(N2C(=O)CSC23C(=O)N(Cc2cccc(F)c2)c2ccccc23)cc1 (centres undefined)	23%
CC(NC(=O)CN1C(=O)COc2ccc(Cl)cc21)c1ccccc1 (centres undefined)	14%
S=C1NCN(CCc2ccccc2)CN1Cc1ccccc1	-14%
CCCCC1=CC2=C(c3ccco3)C(=O)C(C)(OC(=O)c3ccc(OC)cc3)C(=O)C2=CN1C(CO)CO (centres undefined)	?
CCc1nnc(NC(=O)c2ccc(NC(=O)C(C)C)cc2)s1	-11%
C=C(C)C(C)(C#CCN1CCCC1)OC(C)=O (centres undefined)	2%
CC(O)Cc1cn(CC(=O)N2CCNCC2)nn1 (centres undefined)	-23%
CS/C(=N\S(=O)(=O)c1cccs1)Nc1ccc(Cl)cc1	-6%
CCOC(=O)CSc1c(-c2ccccc2)c2cc(Cl)ccc2[nH]c1=O	-17%
O=C(COc1ccc(Cl)cc1)NCc1nnc(SCC(=O)NCCc2ccccc2)o1	2%
CC(C)c1ccc(C(=O)OCC(=O)c2c(N)n(C)c(=O)n(C)c2=O)cc1	13%
CC(C)OC(=O)c1cc(NC(=O)c2nn(C)cc2Br)cc(C(=O)OC(C)C)c1	-13%
Cc1ccc(S(=O)(=O)NCCOc2nc(N(C)C)nc(N(C)C)n2)cc1	?

(more compounds)
SMILES	VDR inh
COCCNC(=O)CCc1nnc2ccc(N3CCC(C)CC3)nn12	17%
COc1ccc(NC(=O)C2CCCCN2N)cc1OC (centres undefined)	-13%
Cc1ccccc1Nc1ncnc2[nH]ncc12	0%
Cc1nc(-c2cccc(NC(=O)c3ccc(-n4cccn4)cc3)c2)cs1	-4%
CC(=O)N/C(=C\c1ccccc1)C(=O)OCC(=O)N(CC(C)C)c1c(N)n(Cc2ccccc2)c(=O)[nH]c1=O	-4%
CCOc1ccc(C(=O)NCc2ccc3c(c2)OCO3)cc1	2%
CC(/C=C/c1ccccc1)=N\NC(=O)c1cc(C)nc2ccccc12	-6%
S=c1[nH]nc(Cc2ccc(Br)cc2)n1/N=C/c1ccc(Cl)cc1	79µM*
Cc1ccc(S(=O)(=O)N2CCC(=O)N(C(COCc3ccc(Cl)cc3Cl)Cc3ccccc3)CC2)cc1 (centres undefined)	-15%
O=C(Cn1nnc2ccccc21)OCc1ccccc1	?
Cc1cccc(C(=O)Nc2c3c(nn2C(C)(C)C)CS(=O)(=O)C3)c1	-9%
Cc1cc(C(=O)NC2CCCN(Cc3ccccc3F)C2)n[nH]1 (centres undefined)	-22%
O=C(CSC1=NS(=O)(=O)c2ccccc2N1)NCCc1ccccc1	3%
CCN(C1CCS(=O)(=O)C1)S(=O)(=O)c1cccs1 (centres undefined)	-11%
CCN(CC)CCN(C(=O)c1ccc2c(c1)OCCO2)c1nc2c(Cl)cccc2s1	-9%
O=C1c2cc(CO)cc(O)c2C(=O)c2c(O[C@@H]3OC(CO)[C@@H](O)[C@@H](O)[C@@H]3O)cccc21 (some centres undefined)	-4%
CN(C)S(=O)(=O)c1cccc(NC(=O)c2cc(-c3cccs3)nn2-c2cccc(Cl)c2)c1	-9%
CCn1c(/C=N/c2nc3ccccc3n2C)nc2ccccc21	-10%
Cc1nn(C(C)C(=O)NC2CC2)c(=O)c2nn(-c3ccccc3)c(C)c12 (centres undefined)	-17%
CN(c1ccccc1)S(=O)(=O)c1cccc(NC(=O)c2ccc(=O)[nH]n2)c1	-5%
COCCN1CCn2c(nc3cc(NC(=O)NC4CCCCC4)ccc32)C1	-5%
Cc1ccc(C(C(=O)NC2CCCCC2)N(Cc2cccnc2)C(=O)C2COc3ccccc3O2)o1 (centres undefined)	-2%
COC(=O)C1=C(N)Oc2cc(C)[nH]c(=O)c2C1c1cc(OC)c(OC)c(OC)c1 (centres undefined)	-10%
O=C(NCc1ccccn1)C1CCC(=O)N1C1CCCCC1 (centres undefined)	6%
O=C(CN1C(=O)CCSc2ccc(S(=O)(=O)N3CCOCC3)cc21)Nc1cccc(F)c1	-5%

Fetched by structure from the list above:
SMILES	VDR inh
CN(c1ccccc1)S(=O)(=O)c1cccc(NC(=O)c2ccc(=O)[nH]n2)c1	-5%
O=C(NCc1cccnc1)c1ccc(S(=O)(=O)N2CCCCCC2)cc1	0%
S=c1[nH]nc(Cc2ccc(Br)cc2)n1/N=C/c1ccc(Cl)cc1	79µM*
COc1cc(OC)c(NC(=O)NCc2ccc3c(c2)CCN3C(=O)c2ccccc2)cc1Cl	11%

Back to the main list; the two compounds before the break are reprinted first.
SMILES	VDR inh
O=C(NCc1ccccn1)C1CCC(=O)N1C1CCCCC1 (centres undefined)	6%
O=C(CN1C(=O)CCSc2ccc(S(=O)(=O)N3CCOCC3)cc21)Nc1cccc(F)c1	-5%
O=C(CSc1nnc2c(n1)[nH]c1ccccc12)NC1CCCCC1	9%
CCOC(=O)c1cc2c(C)n(-c3ccc(N(C)C)cc3)c(C)c2cc(C(=O)OCC)c1=O	-14%
O=c1[nH]cccc1-c1nc2ccccc2n1Cc1cccc(Cl)c1	21%
CCN1CCN(C(=O)CCc2ccc(S(=O)(=O)NCCc3ccccc3)cc2)CC1	11%
CN1CCCN(CC(O)COCc2cccs2)CC1 (centres undefined)	6%
Cc1c(C(=O)Nc2ccc3c(c2)OCCO3)cnn1C	5%
Cc1ccc(NC(=S)NNC(=O)c2ccccc2O)c(C)c1	4%
COc1ccc(-n2c(C)cc(C3=NNC(=NC4CC4)SC3)c2C)cc1	6%
O=c1c2ccccc2c(-c2ccccc2)nn1-c1cc(Cl)ccc1[N+](=O)[O-]	3%
COc1ccc(Cl)cc1NC(=O)CN(C)Cc1cccs1	-11%
Cn1nnnc1SCC(=O)c1cccs1	?
Cc1ccc(S(=O)(=O)NCC(=O)OCc2ccccc2)cc1	16%
S=C(NCCCc1cnc[nH]1)NCCCN(CCc1ccc(Cl)cc1)c1ccc(Br)cn1	-8%
CCCCCCNC(=O)CCNC(=O)c1cc(OC)c(OC)c(OC)c1	4%
CC(C)N(Cc1cn(C)nc1-c1cccc(Cl)c1)CC1CCC(=O)N1 (centres undefined)	-12%
Cc1cccc(Nc2ccccc2C(=O)OCC(=O)NCc2ccco2)c1C	12%
CCc1cccc(N2C(=O)CSC23C(=O)Nc2ccccc23)c1 (centres undefined)	1%
CN(C)/N=C/c1ccc(N2CCOCC2)cc1	14%
Cc1ccc(-c2ccc(CCC(=O)O)n2NC(=O)c2cccs2)cc1	-14%
COCCN(C(=O)COC(=O)/C=C/c1ccco1)c1c(N)n(Cc2ccccc2)c(=O)[nH]c1=O	-7%
Cc1cc(C)n2nc(SCC(=O)N3CCc4ccccc43)nc2n1	-5%
CCN1CCN(C(=O)c2ccc(Cl)c(S(=O)(=O)N3CCOCC3)c2)CC1	7%
Cc1ccc(NC(=O)C23CCC(C)(C(=O)[C@H]2Br)C3(C)C)cc1 (some centres undefined)	-4%
O=C(COC(=O)c1ccc(Cl)c(S(=O)(=O)N2CCCC2)c1)NC1CCCCC1	?
CSCCC(NS(=O)(=O)c1ccc2c(c1)oc(=O)n2C)C(=O)N1CCN(c2ccc(F)cc2)CC1 (centres undefined)	16%

Gathered by group: the entries above with a furan ring, fused or not (5)
SMILES	VDR inh
COCc1c(C(=O)OCC(=O)c2ccc[nH]2)oc2ccccc12	-6%
CCCCC1=CC2=C(c3ccco3)C(=O)C(C)(OC(=O)c3ccc(OC)cc3)C(=O)C2=CN1C(CO)CO (centres undefined)	?
Cc1ccc(C(C(=O)NC2CCCCC2)N(Cc2cccnc2)C(=O)C2COc3ccccc3O2)o1 (centres undefined)	-2%
Cc1cccc(Nc2ccccc2C(=O)OCC(=O)NCc2ccco2)c1C	12%
COCCN(C(=O)COC(=O)/C=C/c1ccco1)c1c(N)n(Cc2ccccc2)c(=O)[nH]c1=O	-7%

The list goes on:
SMILES	VDR inh
Cc1cc(-c2ccccc2)c2c(n1)sc1c(O)cc(=O)[nH]c12	-3%
CCOC(=O)N1CCC(NC(=O)c2cnn(-c3ccccc3)c2C2CCN(C(=O)OC(C)(C)C)CC2)CC1	-1%
CCCOc1ccc(NC(=O)C(=O)NCCCN2CCOCC2)cc1	1%
CCCCCC(=O)N1CC2(CC(c3cccc(NC(=O)CC)c3)=NO2)C[C@H]1C(N)=O (some centres undefined)	-9%
CC(OC(=O)C1=COCCO1)C(=O)Nc1cccc(S(=O)(=O)N2CCOCC2)c1 (centres undefined)	5%
CCn1cc(C(=O)N(C)c2cc(C)ccc2C)c2cc(OC)c(OC)cc2c1=O	-7%
COCCNC(=O)C(=O)NCC1OCCN1S(=O)(=O)c1ccc(F)cc1 (centres undefined)	-19%
Cc1ccc(S(=O)(=O)NC(=O)c2cc(C)n(C3CC3)c2C)cc1	-8%
COc1ccc(OC)c(/C=C/C(=O)OCC(=O)c2c(N)n(C)c(=O)n(C)c2=O)c1	-12%
O=C1OC(OC2CCCCC2)(c2ccccc2)c2ccccc21 (centres undefined)	8%
CSCCCN1CC[C@@H](N2CCN(c3ccccc3F)CC2)[C@H](O)C1	2%
CCOc1ccc(C(=O)NC(C(=O)N2CCC2)C(C)C)cc1 (centres undefined)	-1%
CC(O)(c1ccccc1)c1ccc2ccccc2n1 (centres undefined)	-22%
COc1ccc(-c2cc3ncc(C(C)=O)c(C)n3n2)cc1	?
CO/N=C(/CNC(=O)c1ccc(F)cc1)c1ccc(Cl)cc1	-2%
CN(C)c1ccc(C(CNC(=O)c2ccc(C(C)(C)C)cc2)N2CCOCC2)cc1 (centres undefined)	17%
Cc1ccccc1/C(N)=N/OC(=O)c1cccs1	-12%
CCOc1ccc(N(C)S(=O)(=O)c2ccc3c(c2)C(C)(C)C(=O)N3C)cc1	10%
Cc1nc([N+](=O)[O-])cn1CC(=O)NCCCO	0%
CCOc1ccc(NC(=O)Cn2nnc(C(=O)Nc3ccc(OCC)cc3)c2N)cc1	-1%
COC(=O)Cc1c(O)ccn(C2CC2)c1=O	-15%
COc1ccccc1NC(=O)CCCOc1cc(=O)n(C)c2ccccc12	-15%
Cc1ccc2c(CC(=O)Nc3sccc3C(N)=O)coc2c1	12%
CCCNC(=O)c1ccc(CNc2c(N3CCC(C(=O)OCC)CC3)c(=O)c2=O)cc1	-18%
CCc1nn2c(=O)cc(COC(=O)C(c3ccccc3)c3ccccc3)nc2s1	15%

(continued)
SMILES	VDR inh
Oc1ccccc1/C=N/N1CCN(c2ccccn2)CC1	5%
O=S(=O)(c1ccccc1)N1CCC(n2nnc3cc(F)ccc32)CC1	1%
CC(CCc1ccccn1)C(=O)C(C)CCc1ccccn1 (centres undefined)	-10%
COc1ccccc1-c1cc(-c2ccc(C)cc2)nc(SCc2nnc(-c3ccccc3)o2)c1C#N	?
Cc1cc(/N=C/C=C2/N(C)c3ccccc3C2(C)C)n(CCC#N)n1	12%
COc1ccc(NC(=O)c2nc[nH]c2C(=O)NCC(=O)OC(C)(C)C)cc1	-8%
CCOC(=O)C1CCCN(C(=O)c2cc3ccc(OC)cc3[nH]2)C1 (centres undefined)	-3%
Cc1cnc(CNc2cc(-c3cccc(C#N)c3)ncn2)cn1	-6%
CC(=O)Nc1nnc(SCC(=O)Nc2nc(C)cs2)s1	-11%
O=C(Nc1ncn[nH]1)c1ccc(Cl)c(S(=O)(=O)N2CCCCCC2)c1	-3%
O=C(Nc1ccccc1)C1=C[C@H](C2CC2)C[C@H](OCCCCO)O1	4%
Cc1c(CCC(=O)NCC(=O)NCC(=O)O)c(=O)oc2cc3oc4c(c3cc12)CCCC4	-13%
N#CC1=C(SCC(=O)Nc2cccc3cccnc23)NC(=O)C(C#N)C12CCCCC2 (centres undefined)	19%
CC(=O)c1ccc(OCc2cc(C(=O)N3CCN(C4CCCC4)C(=O)C3)no2)cc1	-15%
CCOc1ccc(S(=O)(=O)Nc2ccccc2C(=O)N/N=C/c2c(OC)ccc3ccccc23)cc1	-16%
CCOc1ccc(NC(=O)CN(c2cccc(C(F)(F)F)c2)S(C)(=O)=O)cc1	-16%
Cc1cc(NC(=O)CSc2nnc(-c3ccncc3)n2-c2ccc(F)cc2)no1	-6%
CC(C)c1ccc2c(c1)-c1ccccc1S(=O)(=O)N2CC(=O)N1CCCCC1	2%
COCCNC(=O)c1nn2cccnc2c1Cl	4%
O=C(Nc1ccc(Cl)cc1F)C1CCN(S(=O)(=O)c2cccnc2)CC1	-7%
O=C(CCCl)N1CCN(c2nc(-c3ccccc3)cs2)CC1	-13%
COc1cc(C2c3c(-c4ccccc4O)n[nH]c3C(=O)N2Cc2ccco2)cc(OC)c1OC (centres undefined)	-12%
O=C(/C=C/c1cccc2ccccc12)c1ccncc1	14µM*
COCCNC(=O)c1ccc2c(c1)ncn2-c1cccc(C)c1	8%
CCOc1ccc(S(=O)(=O)/N=C(/c2ccccc2)N(C)C)cc1	-4%
